Source: PubChem BioAssay
ClpP mod = qHTS Assay for Activators of ClpP; purified B. subtilis ClpP, FRET peptide cleavage, 20 min; Potency, µM (highest dose often 57.5 µM), inactives show top-dose activity change, negative = active; 1.9% of 340,000 active; active = well fitted falling curve with a large enough effect; inconclusive = small, poorly fitted or top-dose-only effect; inactive = no such curve, though single readings can be large or run the other way; note: potency is the fitted concentration of half-maximal effect; the source files actives as falling curves though it sought activators and does not explain the sign; nearly all actives have a fitted effect of over 65% in size; many hits overshoot -100%
Target sequence (P80244 whole entry, looked up): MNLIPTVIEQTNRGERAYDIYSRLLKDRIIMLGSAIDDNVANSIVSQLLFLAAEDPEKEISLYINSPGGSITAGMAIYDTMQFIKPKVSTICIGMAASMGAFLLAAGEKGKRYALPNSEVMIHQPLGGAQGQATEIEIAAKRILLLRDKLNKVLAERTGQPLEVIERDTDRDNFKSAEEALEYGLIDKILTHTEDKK
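Buffer: 100 mM Tris/HCl pH8, 100 mM KCl, 0.05% low protease BSA, 2.5% glycerol, 0.01% Tween-20. ClpP 10 microg/mL final; 20 min RT; delta FRET normalized to ADEP and DMSO controls.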
CtBP-E1A blk = CtBP/E1A binding inhibition. AlphaScreen GST-E1A/His-CtBP binding, 1536-well; active compounds read low; control for the full effect not named in the record. AID 651724. activity change, % (test concentration not listed). 0.49% of 340,000 active; in the data active means activity change below about -65%; inconclusive means about -30% to -65%; inactive means above about -30%; note: % is set by controls: 0 for no effect and ±100 for the full control effect
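AlphaScreen with 125 nM GST-E1A and 125 nM His-CtBP (5X stocks) in Tris pH 8.0, 300 mM NaCl, BSA, Tween 20, TCEP. Compounds preincubated 2 h at 37 deg C, then glutathione donor/nickel acceptor beads added for 1 h at 37 deg C in dark.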
An asterisk follows results filed as active; ? = inconclusive. This is a subset; count on the stated rates, not on these rows.

Molecule	ClpP mod	CtBP-E1A blk
CCOc1ccc(CCN2C(=O)C(=O)N([C@@H](Cc3ccccc3)CN3CCC[C@H]3CN3C(=O)C(=O)NC[C@@H]3Cc3ccc(O)cc3)C[C@@H]2Cc2ccc(O)cc2)cc1	-0.4%	-1.6
COCC(=O)N[C@H]1CC[C@@H](CC(=O)NCc2ccccc2OC)O[C@@H]1CO	1.1%	0.1
COc1ccccc1-c1cc(NC=O)c2ncc(-c3ccc(S(C)(=O)=O)cc3)n2c1	4.8%	-13.3
CCCCNC(=O)C[C@@H]1C[C@@]2(C(=O)OC)CCCCC=C2N(Cc2cccc3ccccc23)C1=O	-2.7%	-18.9
COc1ccccc1N1CCN(C2C(=O)Nc3ccccc3-n3nnnc32)CC1 (stereo unspecified)	-11.2%	-24.8
Nc1[nH]c(C(=O)c2ccccc2)c(-c2ccncc2)c1C(=O)NCc1cccc2ccccc12	0.8%	-0.5
Cc1cn([C@H]2C[C@H](O)[C@@H](CCC(=O)NCCCc3ccccc3)O2)c(=O)[nH]c1=O	0.9%	5.2
Cc1c(Br)cccc1NC(=O)C1(C)CCN1C(C)C (stereo unspecified)	-2.2%	5.8
O=C(Nc1ccc2c(c1)OCO2)c1cc(C2CCCCN2C(=O)c2ccc3c(c2)CCO3)on1 (stereo unspecified)	-2.3%	0.0
Cc1csc(-c2cc(C(=O)NCc3cc(C(F)(F)F)cc(C(F)(F)F)c3)n[nH]2)c1	-12.5%	2.5
COC(=O)C1(C(=O)OC)c2ccccc2CN(S(=O)(=O)c2ccc(C)cc2)C1CC(C)=O (stereo unspecified)	1.1%	-2.1
CCCS(=O)(=O)NC(=O)C1(C)CCN(C(=O)c2ccccc2OC(F)(F)F)C1 (stereo unspecified)	0.5%	6.2
CCc1nc2ccc(C(=O)Nc3cc(-c4ccccc4)ccc3OC)cn2c1N(C=O)CCC(C)C	?	-4.6
CSc1ccc(Cn2c(C)c(C(=O)NCc3ccc(C(C)C)cc3)sc2=O)cc1	-0.8%	1.2
O=C(Nc1ccc2c(c1)OCCO2)C1c2ccccc2OCC(=O)N1Cc1ccc2c(c1)OCO2 (stereo unspecified)	-1.0%	6.1
CCOC(=O)[C@]12CCC=C1N(Cc1ccc3c(c1)OCO3)C(=O)[C@H](CC(=O)N1CCCC1)C2	-0.8%	-2.7
CN(CCO)c1ccc2c(c1)OC[C@@H](Cc1ccccc1)NS2(=O)=O	-1.5%	-1.8
COC(=O)[C@@]1(C(C)C)N=C(c2cc(OC)c(OC)c(OC)c2)[C@]2(O1)C(=O)N(C)c1ccc(Br)cc12	0.4%	-6.1
CC(C)NC(=O)C1(C)CSCC(=O)N1CCCn1ccnc1 (stereo unspecified)	3.7%	1.7
CCc1nc2ccc(C(=O)NCCCN(C)C)cn2c1N(CC)CCOC	-1.0%	5.1

In a second layout: results already given
mol: COc1ccccc1N1CCN(C2C(=O)Nc3ccccc3-n3nnnc32)CC1 (stereo unspecified)
  ClpP mod = -11.2% | CtBP-E1A blk = -24.8
mol: CCOC(=O)[C@]12CCC=C1N(Cc1ccc3c(c1)OCO3)C(=O)[C@H](CC(=O)N1CCCC1)C2
  ClpP mod = -0.8% | CtBP-E1A blk = -2.7
mol: COCC(=O)N[C@H]1CC[C@@H](CC(=O)NCc2ccccc2OC)O[C@@H]1CO
  ClpP mod = 1.1% | CtBP-E1A blk = 0.1

Next results follow.
Molecule	ClpP mod	CtBP-E1A blk
COCCNc1nc2cc(-c3ccccc3C)sc2c(=O)n1C	-10.3%	-3.1
CCc1nc2c(OCC3COc4ccccc4O3)cccn2c1N(C)C(=O)c1ccccc1F (stereo unspecified)	0.9%	-8.6
CCCCc1c(-c2ccccc2OC)ncn1CCc1ccccc1OC	-5.2%	-3.1
Cc1nc2ccccc2n1C(C)c1nc2ccccc2n1CC(=O)c1ccc(OC(F)(F)F)cc1 (stereo unspecified)	2.6%	-4.2
COc1ccc(Cn2cc(CN3CC(N(C)C)CS3(=O)=O)nn2)cc1 (stereo unspecified)	-1.8%	-18.3
CC(C)(C)Cc1c(C2CCCCC2)nc2ccc(Br)cn12	-1.4%	10.7
O=C(Nc1ccc2c(c1)OCO2)c1csc([C@@H]2C[C@H](O)[C@@H](CO)O2)n1	-2.9%	-5.6
O=C1NC[C@H](CCCCN2C[C@H](Cc3ccccc3)N(Cc3ccccc3)C(=O)C2=O)N(CC2CCCCC2)C1=O	1.6%	2.1
Cc1ccc(S(=O)(=O)N2C[C@H]3[C@H]4C(=O)N(C5CCCCC5)C(=O)[C@H]4CC(=O)[C@H]3[C@@H]2c2cccc3ccccc23)cc1	-1.7%	3.1
CC1(C(=O)NCc2ccc(C(F)(F)F)cc2)CCN1Cc1ccccc1OC(F)F (stereo unspecified)	0.8%	4.1
CC(c1nc2ccccc2[nH]1)n1c(=O)c(-c2cccs2)nc2ccccc21 (stereo unspecified)	22.4µM*	4.2
COCCNc1ncnc2c1ncn2[C@H]1CN(Cc2ccc(Cl)cc2)C[C@@H](CO)O1	1.5%	1.0
CC(=O)c1ccc(OCc2c(-c3ccccc3)nnn2CC(=O)NS(=O)(=O)c2ccccc2C)cc1	0.5%	-3.7
CCCCC[C@H](C)N1C[C@@H](COCc2ccccc2)Oc2cc(N3CCC[C@@H]3COC)ccc2S1(=O)=O	-2.7%	0.0
COc1ccc(S(=O)(=O)NC(=O)C2(C)CCN2C(=O)C2(c3ccccc3)CC2)cc1 (stereo unspecified)	0.2%	8.1
Cc1cc(C(O)c2ncc(-c3cccc(F)c3)[nH]2)ccc1F (stereo unspecified)	0.7%	1.6
Cc1noc(C)c1S(=O)(=O)NC(=O)C1(C)CCN1C(=O)Cc1ccc(Cl)cc1Cl (stereo unspecified)	-1.4%	1.8
Nc1nc2ccccc2cc1C(=O)NCc1ccc(Cl)cc1Cl	5.0%	8.9
CC(C)Oc1cc(F)ccc1-c1cc(C(=O)NCC2CCCCC2)[nH]n1	0.7%	4.0
Cc1c(C(=O)NCc2ccc(Cl)c(Cl)c2)sc(=O)n1Cc1ccc(S(=O)(=O)N(C)C)cc1	0.1%	0.3
OC[C@@H]1CN(CCc2ccccc2)C[C@H](n2cnc3c(NCc4ccc(F)cc4)ncnc32)O1	-1.4%	-3.3
CCc1nc2c(OCC(=O)c3ccc(F)cc3)cccn2c1N(C)C(=O)c1ccc(OC)cc1	-3.7%	0.3
CC(=O)c1ccc(Nc2nc(C(N)c3ccccc3Cl)cs2)cc1 (stereo unspecified)	-11.1%	4.6
O=C(NCc1ccccc1)C(c1ccncc1)n1c(=O)c(-c2cc3ccccc3[nH]2)nc2ccccc21 (stereo unspecified)	-21.4%	14.0
C#Cc1ccc(NC(=O)C2(C)CCN2C(=O)c2ccccc2CCc2ccccc2)cc1 (stereo unspecified)	-1.9%	1.1
CCC(c1nnnn1-c1c(C)cccc1C)N1CCN(c2cccc(C(F)(F)F)n2)CC1 (stereo unspecified)	?	-3.2
CN1CCN(C2CN(C3CCCC3)S(=O)(=O)C2)CC1 (stereo unspecified)	-3.3%	-11.9
Cc1ccc(F)cc1C(=O)N1CCOCC1c1cc(C(=O)NCc2ccccc2)no1 (stereo unspecified)	-2.0%	-0.6
O=C(NCC1CCCO1)c1[nH]c(C(F)(F)F)nc1-c1ccccc1 (stereo unspecified)	-2.3%	2.5
Cc1ccc(-c2nc3c(Cl)cc(C(F)(F)F)cn3c2Cc2ccccc2C(F)(F)F)cc1	8.3%	2.5
Cc1cccc(C)c1NC(=O)C(c1ccncc1)n1c(=O)c(-c2ccco2)nc2ccccc21 (stereo unspecified)	4.1%	-1.4
COc1ccc(CCN2C(=O)c3ccccc3C2c2nnnn2-c2ccc3c(c2)OCCO3)cc1OC (stereo unspecified)	2.1%	0.0
CN(C)CCN(C)c1cc2c(c3c1ccn3C)C1CCC2O1 (stereo unspecified)	-23.4%	0.9
CC(C)(C)C1CCSC2=NCCC[C@]2(c2ccccc2)C1 (stereo partly specified)	-0.2%	2.3
COc1ccc(NC(=O)c2cc(-c3sc(NC(=O)c4ccccc4)nc3C)n(-c3ccc(Br)cc3)n2)cc1	-3.2%	0.1
CC(=O)NC(C)(c1ccccc1)c1nc(-c2cccc(C(F)(F)F)c2)cs1 (stereo unspecified)	0.1%	3.3
Cc1cccc(C)c1NC(=O)C(CCc1ccccc1)n1c(=O)c(-c2cc3ccccc3[nH]2)nc2ccccc21 (stereo unspecified)	1.1%	22.4
COC(=O)[C@@]12C[C@@H](CC(=O)NCCCCc3ccccc3)C(=O)N(Cc3cccc4ccccc34)C1=CCC(C)(C)C2	-3.1%	1.2
COC(=O)[C@@]12C[C@@H](CC(=O)NCCCN3CCCC3=O)C(=O)N(CCc3ccc(OC)c(OC)c3)C1=CCC(C)(C)C2	-0.1%	0.0
Cc1ccc2ccccc2c1C(O)c1ncc(-c2ccc(C(F)(F)F)cc2)[nH]1 (stereo unspecified)	-6.2%	-5.9

Record cards (already shown). Order of screens: ClpP mod | CtBP-E1A blk
Nc1nc2ccccc2cc1C(=O)NCc1ccc(Cl)cc1Cl as listed: 5.0% | 8.9
O=C(NCc1ccccc1)C(c1ccncc1)n1c(=O)c(-c2cc3ccccc3[nH]2)nc2ccccc21 (stereo unspecified) as listed: -21.4% | 14.0
Cc1noc(C)c1S(=O)(=O)NC(=O)C1(C)CCN1C(=O)Cc1ccc(Cl)cc1Cl (stereo unspecified) as listed: -1.4% | 1.8
COC(=O)[C@@]12C[C@@H](CC(=O)NCCCCc3ccccc3)C(=O)N(Cc3cccc4ccccc34)C1=CCC(C)(C)C2 as listed: -3.1% | 1.2
CCOc1ccc(CCN2C(=O)C(=O)N([C@@H](Cc3ccccc3)CN3CCC[C@H]3CN3C(=O)C(=O)NC[C@@H]3Cc3ccc(O)cc3)C[C@@H]2Cc2ccc(O)cc2)cc1 as listed: -0.4% | -1.6

Next results follow:
Molecule	ClpP mod	CtBP-E1A blk
CC(C)C[C@H]1CNC(=S)N1C[C@H]1CCCN1C[C@H](CC(C)C)N1C[C@H](Cc2ccc(O)cc2)N(CCc2ccccc2)C1=S	-0.7%	-10.2
Cc1ccc(-c2csc(C(C)(O)c3ccc(F)c(F)c3)n2)cc1C (stereo unspecified)	-2.1%	11.9
CCCCC(=O)N(C)c1c(CC)nc2c(OCC(=O)N3CCOCC3)cccn12	-4.0%	24.8
CCc1ccc(C=C2SC(=S)N(CCCC(=O)Nc3ccc(C(=O)O)cc3)C2=O)cc1	2.5%	-11.2
O=C(NCc1ccccc1Cl)c1csc(COCCO)n1	0.1%	6.4
O=C(Nc1ccc(Oc2ccccc2)cc1)c1csc(COCCO)n1	0.8%	4.6
CC(C)NC(=O)C1(C)CCN1C(=O)c1c(F)cccc1F (stereo unspecified)	0.0%	11.7
N#Cc1c(N)[nH]c(C(=O)c2ccccc2)c1-c1ccccc1Br	0.3%	3.2
CC(C)c1ccc(NC(=O)Nc2nc(C(N)c3ccccc3Cl)cs2)cc1 (stereo unspecified)	1.0%	-1.8
NC(c1csc(Nc2nncc3ccccc23)n1)c1ccccc1Cl (stereo unspecified)	-6.1%	-3.5
O=C(Nc1ccccc1)C1Cc2c(-c3ccc(Cl)cc3)ccnc2O1 (stereo unspecified)	-2.5%	-1.2
COc1ccc(OC)c(NC(=O)Nc2nnc([C@@H]3O[C@H](CO)[C@@H](O)[C@H]3O)s2)c1	-6.8%	0.7
CCCNC(=O)C1(C)CCN(C(=O)c2oc3ccccc3c2C)C1 (stereo unspecified)	1.8%	-5.9
COc1ccc(C(C(=O)NC(C)(C)C)n2c(=O)c(-c3ccccc3)nc3ccccc32)cc1 (stereo unspecified)	?	0.0
CCCCC(=O)N(C)c1c(C)nc2ccc(C(=O)Nc3cccc(NS(C)(=O)=O)c3)cn12	-1.2%	-1.8
CC1(C(=O)Nc2cccc(C#N)c2)CCN1C(=O)c1ccccc1CCc1ccccc1 (stereo unspecified)	-3.7%	0.4
Cc1ccc(-c2nc3ccc(Cl)cn3c2Cc2cccc(Cl)c2)cc1	-14.7%	-10.6
O=C(Nc1ccc2c(c1)OCCO2)C(c1cc2ccccc2o1)N1CCC(Cc2ccccc2)CC1 (stereo unspecified)	-1.5%	-2.3
CCCc1nc2c(C)cc(Br)cn2c1Cc1ccccc1C(F)(F)F	-4.5%	14.8
CCOC(=O)C1=C[C@@H](C(C)(C)C)N(S(=O)(=O)c2ccc(C)cc2)[C@H]1c1ccccc1Cl	-0.2%	-1.3
CCCNC(=O)C1(C)CCN(C(=O)c2ccccc2F)C1 (stereo unspecified)	-0.6%	4.1
COc1ccc(CNC(=O)C2Cc3c(-c4cccc(F)c4)ccnc3O2)cc1OC (stereo unspecified)	-1.9%	-5.0
CC1(C(=O)Nc2ccc(Cl)c(C(F)(F)F)c2)Cc2c(-c3ccc4c(c3)OCO4)ccnc2O1 (stereo unspecified)	5.5%	-25.4
CC(=O)Nc1ccc(CNc2nc(NC(C)C)nc3cc(-c4ccccc4)sc23)cc1	?	-10.1
